# Rce1 inh: yeast Ras-converting enzyme inhibition; Q03530; yeast membranes, quenched prenylated peptide cleavage fluorescence; calls only; 0.27% of 290,000 active;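 active means fall in fluorescence gain of 50% or more versus controls, with final raw signal at or below 3038400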;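 further: plate controls were neutral control wells for no effect and wells lacking membranes for full effect; tested at 10 µM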
# Target sequence (Q03530 whole entry, looked up): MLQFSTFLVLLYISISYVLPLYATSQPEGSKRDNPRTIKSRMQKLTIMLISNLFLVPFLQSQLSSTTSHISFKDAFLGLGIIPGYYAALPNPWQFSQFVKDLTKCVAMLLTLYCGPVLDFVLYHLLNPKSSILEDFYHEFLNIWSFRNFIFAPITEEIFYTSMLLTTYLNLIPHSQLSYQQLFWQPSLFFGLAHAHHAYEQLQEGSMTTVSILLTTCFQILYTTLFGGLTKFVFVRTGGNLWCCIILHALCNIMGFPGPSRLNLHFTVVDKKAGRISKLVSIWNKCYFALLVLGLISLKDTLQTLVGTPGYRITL
# PABP FP inh: blocks human PABP binding to poly(A) RNA; fluorescence polarization; 1% of 290,000 active; inhibition, % at 35 µM; AID 2014;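 active means 50% or more with normal probe brightness, or confirmed in later tests; about a fifth of its hits are not listed in these tables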;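 further: calls also rest on retests at 20 µM and on dose response follow-up; controls were probe without protein and protein plus probe with vehicle; some compounds called inactive have numbers as strong as hits; many hits fall short of the cut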
# Target sequence (P11940 whole entry, looked up): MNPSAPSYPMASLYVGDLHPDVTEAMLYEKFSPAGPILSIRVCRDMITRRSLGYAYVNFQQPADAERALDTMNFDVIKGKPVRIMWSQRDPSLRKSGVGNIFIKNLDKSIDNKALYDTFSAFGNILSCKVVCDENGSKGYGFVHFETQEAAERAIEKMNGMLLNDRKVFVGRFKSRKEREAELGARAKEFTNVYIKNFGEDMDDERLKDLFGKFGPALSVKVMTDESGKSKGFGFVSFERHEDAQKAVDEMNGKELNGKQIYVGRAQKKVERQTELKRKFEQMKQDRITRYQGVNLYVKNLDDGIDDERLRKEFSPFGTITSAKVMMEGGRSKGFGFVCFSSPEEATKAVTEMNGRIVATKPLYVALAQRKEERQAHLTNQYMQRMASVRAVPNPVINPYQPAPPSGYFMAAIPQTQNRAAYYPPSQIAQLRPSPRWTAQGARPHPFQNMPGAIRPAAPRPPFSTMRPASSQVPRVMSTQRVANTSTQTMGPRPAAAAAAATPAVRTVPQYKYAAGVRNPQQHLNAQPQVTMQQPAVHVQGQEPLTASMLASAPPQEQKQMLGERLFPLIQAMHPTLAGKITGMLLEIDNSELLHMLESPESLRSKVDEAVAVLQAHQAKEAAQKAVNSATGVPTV
# Env fusion inh: inhibitors of HIV Env-mediated cell fusion; HeLa-JRFL Env/CEM21 cell fusion, luciferase; 1.1% of 360,000 active; inhibition, % at 12.3 µM;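 active means mean replicate inhibition score of at least 50 and every replicate individually at or above 50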;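 further: 0% = plate neutral controls and 100% = maraviroc near 300 nM; one replicate is shown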
# MT1-MMP act inh: MT1-MMP (human) activation inhibition | GFP/RFP ratio change, % at 20 µM | HT1080 RFP-PRO-GFP cells, GFP/RFP ratio fluorescence, overnight; percent of plate control window, DMSO zero | AID 651647 | P50281 | 0.061% of 360,000 active;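 active means GFP/RFP ratio change of at least 30% with cell ATP level not reduced by more than half and red fluorescence within 50% of control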; further: strong numbers were not always called active
#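 Assay system – RFP-PRO-GFP reporter HT1080 cells · Compound dosing – single dose of 20 µM compound, 1% DMSO final · Incubation – overnight compound exposure at 37 °C · Measure – GFP/RFP fluorescence ratio · Benchmarks – DMSO wells and RFP-L50D-GFP cells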
# eIF4H inh: inhibitors of RNA binding by human eIF4H. AID 2012. Q15056. 0.94% of 290,000 active. eIF4H fluorescence polarization binding assay. inhibition, % at 35 µM;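 active means 50% or more with normal probe brightness, or confirmed in later tests; about a fifth of its hits are not listed in these tables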;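 further: calls also rest on retests at 20 µM and on dose response follow-up; 0% = protein and probe with vehicle and 100% = probe without protein; strong numbers were not always called active; many hits fall short of the cut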
# CSC inhib: blocks cancer stem cells | cancer stem cell-like cells viability, luminescence | inhibition, % at 7.5 µM | 1.1% of 300,000 active | AID 2717;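 active means mean at 75% or more and at least half the replicates too; tested in HMLE shEcad cells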;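 further: 0% = median of negative and 100% = median of positive control wells; the first replicate is given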
# Yeast UUG start: modulators of start codon recognition fidelity in yeast; 0.13% of 350,000 active; S. cerevisiae UUG-firefly luciferase reporter, luminescence/redox ratio; activity score, % at 18.7 µM;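 active means replicate mean at a twofold rise or more, about +100% in these data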;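 further: firefly luciferase made from a UUG start codon reports start codon fidelity; reporter light over untreated wells divided by growth signal over untreated wells; some hits fall short of that in this replicate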
# eIF4H inh retest: recorded beside eIF4H inh, whose call it bears; inhibition, %; compound at 20 µM; confirmation average;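 mean of two retest wells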
# PABP FP inh retest: second read-out of PABP FP inh, no call of its own (marks repeat the call); inhibition, %; compound at 20 µM; confirmation repeats;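 mean of two retest wells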
# MT1-MMP act inh RFP: second read-out of MT1-MMP act inh, no call of its own (marks repeat the call); RFP signal change, %; measured here: RFP expression control read;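 0 = vehicle wells; hits needed this value within 50% of zero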
# Active calls of the source: *; i = inactive; / = no result given.
SMILES,Rce1 inh,PABP FP inh,Env fusion inh,MT1-MMP act inh,MT1-MMP act inh RFP,eIF4H inh,CSC inhib,Yeast UUG start,others
Cc1cc(Oc2cnn(C(C)(C)C)c(=O)c2Cl)cc(C(C)C)c1,i,12,31,-16,-12,-1,49,-5,
COc1cc(C(=O)c2cocc2C(=O)c2ccc3c(c2)OCO3)cc(OC)c1OC,i,1,-382,5,-7,-11,50,1,
CC(=O)N1N=C(c2ccc(Br)cc2)OC1(C)CC(=O)Nc1ccccc1 (stereo not given),i,2,-59,-2,-3,-5,-9,/,
O=C1[C@H]2[C@@H](C(=O)N1c1cc(Cl)cc(Cl)c1)[C@]1(C(=O)Nc3ccccc31)N1CCC[C@@H]21,i,-8,15,-5,16,4,-13,17,
O=S(=O)(c1ccc(F)cc1)N1CCCN(c2nccc(C(F)(F)F)n2)CC1,i,-5,15,-1,-1,-4,7,-5,
O=C1C[C@@H]2c3c(cccc3CN1Cc1ccccc1)C[C@@H](O)[C@H]2O,/,/,-33,3,3,/,/,4,
Oc1ccc(-c2nccs2)cc1,/,/,-167,7,14,/,/,2,
Cn1cccc1/C=N/n1c(-c2ccc(C(C)(C)C)cc2)n[nH]c1=S,i,2,/,0,-6,12,18,-7,
COc1ccc(NC(=O)C2(C)Cc3c(-c4ccc(C(N)=O)cc4)ccnc3O2)cc1OC (stereo not given),/,/,-3,-1,4,/,/,-8,
COc1cccc(CC2(CO)CCCN(Cc3cn[nH]c3-c3ccc(F)cc3)C2)c1 (stereo not given),i,-4,-13,3,6,-5,5,/,
CCOC(=O)C1=C(C)NC2=C(C(=O)CC(C)(C)C2)C1c1ccc2c(c1)CCCN2C (stereo not given),i,13,/,0,3,-7,1,-1,
Cc1nn(C)c(C)c1CCC(=O)NC1CC(C)(C)Cc2c1cnn2-c1ccccc1 (stereo not given),i,9,6,-5,0,-3,-7,-21,
C[C@@H](NC(=O)OC(C)(C)C)c1nnc(S(=O)(=O)Cc2ccccc2)o1,i,-7,39,/,/,4,27,/,
CC1SC(c2ccc(Cl)cc2)NC1=O (stereo not given),i,30,/,6,5,-3,-16,-10,
O=C(CCc1ccccc1)NCc1ccc2c(c1)OCO2,i,6,-7,0,0,3,-9,-19,
O=C(c1csc2c1CCCC2)n1cccn1,i,/,5,9,2,/,-21,-3,
CCN(CC)c1ccc(N)cc1,/,/,/,4,9,/,23,-4,
O=C(c1ccc(NC(=S)NCc2ccco2)cc1)N1CCCCC1,i,-8,1,-2,-1,-8,-24,/,
C[C@H](NC(=O)c1nc[nH]c1C(=O)NCC(=O)OCc1ccccc1)c1ccccc1,i,1,-10,3,-2,-14,7,-5,
CCC1COCCS(=O)(=O)N1Cc1cccc(C(F)(F)F)c1 (stereo not given),i,16,/,3,0,4,2,1,
Cc1ccc(NS(=O)(=O)c2ccc(C)c(NC(=O)c3ccc(S(=O)(=O)N4CCCCCC4)cc3)c2)c(C)c1,/,/,-104,-3,-15,/,/,-1,
Cc1ccccc1N1CCN(C2CCCN(C(=O)c3snnc3C)C2)CC1 (stereo not given),i,-1,/,0,-4,-3,-12,-2,
CCN(C(=O)CSc1nnc(Cn2nnc3ccccc32)o1)c1nc(C)cs1,i,13,11,-7,-5,-7,-5,-9,
Cn1c2c(c(=O)n1-c1ccccc1)CSCC2,i,/,-7,-2,5,/,-3,/,
COc1ccccc1CN(Cc1cc2cc(C)ccc2[nH]c1=O)Cc1nnnn1CC1CCCO1 (stereo not given),i,17,40,-5,-3,7,9,2,

# 16 structures out of the list, arranged by length of the SMILES, high to low.
SMILES,Rce1 inh,PABP FP inh,Env fusion inh,MT1-MMP act inh,MT1-MMP act inh RFP,eIF4H inh,CSC inhib,Yeast UUG start,others
O=C1[C@H]2[C@@H](C(=O)N1c1cc(Cl)cc(Cl)c1)[C@]1(C(=O)Nc3ccccc31)N1CCC[C@@H]21,i,-8,15,-5,16,4,-13,17,
Cc1ccc(NS(=O)(=O)c2ccc(C)c(NC(=O)c3ccc(S(=O)(=O)N4CCCCCC4)cc3)c2)c(C)c1,/,/,-104,-3,-15,/,/,-1,
COc1ccc(NC(=O)C2(C)Cc3c(-c4ccc(C(N)=O)cc4)ccnc3O2)cc1OC (stereo not given),/,/,-3,-1,4,/,/,-8,
C[C@H](NC(=O)c1nc[nH]c1C(=O)NCC(=O)OCc1ccccc1)c1ccccc1,i,1,-10,3,-2,-14,7,-5,
COc1ccccc1CN(Cc1cc2cc(C)ccc2[nH]c1=O)Cc1nnnn1CC1CCCO1 (stereo not given),i,17,40,-5,-3,7,9,2,
O=C1C[C@@H]2c3c(cccc3CN1Cc1ccccc1)C[C@@H](O)[C@H]2O,/,/,-33,3,3,/,/,4,
COc1cc(C(=O)c2cocc2C(=O)c2ccc3c(c2)OCO3)cc(OC)c1OC,i,1,-382,5,-7,-11,50,1,
O=S(=O)(c1ccc(F)cc1)N1CCCN(c2nccc(C(F)(F)F)n2)CC1,i,-5,15,-1,-1,-4,7,-5,
CC(=O)N1N=C(c2ccc(Br)cc2)OC1(C)CC(=O)Nc1ccccc1 (stereo not given),i,2,-59,-2,-3,-5,-9,/,
CCN(C(=O)CSc1nnc(Cn2nnc3ccccc32)o1)c1nc(C)cs1,i,13,11,-7,-5,-7,-5,-9,
Cc1ccccc1N1CCN(C2CCCN(C(=O)c3snnc3C)C2)CC1 (stereo not given),i,-1,/,0,-4,-3,-12,-2,
O=C(c1ccc(NC(=S)NCc2ccco2)cc1)N1CCCCC1,i,-8,1,-2,-1,-8,-24,/,
O=C(CCc1ccccc1)NCc1ccc2c(c1)OCO2,i,6,-7,0,0,3,-9,-19,
CC1SC(c2ccc(Cl)cc2)NC1=O (stereo not given),i,30,/,6,5,-3,-16,-10,
Oc1ccc(-c2nccs2)cc1,/,/,-167,7,14,/,/,2,
CCN(CC)c1ccc(N)cc1,/,/,/,4,9,/,23,-4,

# Ordered by count of non-hydrogen atoms (low to high): part of the list above
SMILES,Rce1 inh,PABP FP inh,Env fusion inh,MT1-MMP act inh,MT1-MMP act inh RFP,eIF4H inh,CSC inhib,Yeast UUG start,others
CC1SC(c2ccc(Cl)cc2)NC1=O (stereo not given),i,30,/,6,5,-3,-16,-10,
C[C@@H](NC(=O)OC(C)(C)C)c1nnc(S(=O)(=O)Cc2ccccc2)o1,i,-7,39,/,/,4,27,/,
O=C1[C@H]2[C@@H](C(=O)N1c1cc(Cl)cc(Cl)c1)[C@]1(C(=O)Nc3ccccc31)N1CCC[C@@H]21,i,-8,15,-5,16,4,-13,17,

# Next entries
SMILES,Rce1 inh,PABP FP inh,Env fusion inh,MT1-MMP act inh,MT1-MMP act inh RFP,eIF4H inh,CSC inhib,Yeast UUG start,others
O=C(NCCN1CCOCC1)c1cc(Br)ccc1Cl,i,3,-10,1,1,-10,15,-11,
CC(C)(C)c1ccc(CC(=O)N2CCC2(C)C(=O)NCc2ccc3c(c2)OCO3)cc1 (stereo not given),/,/,12,4,-3,/,/,13,
Cc1ccc(-c2nc(C)sc2CC(=O)OCC(=O)Nc2ccc(F)c(Cl)c2)cc1,i,/,10,-2,-1,/,-6,-22,
O=C(Cc1cc(=O)oc2cc(O)ccc12)NCC1CCC(C(=O)O)CC1 (stereo not given),i,1,-21,-3,-1,0,-19,2,
Cc1nc(-c2ccc(S(=O)(=O)N3CCOCC3)cc2)cs1,i,1,/,2,1,-19,-19,-10,
Cn1nc(C(C)(C)C)cc1NC(=O)C1(C)CCN1C(=O)Cc1ccc(-c2ccccc2)cc1 (stereo not given),/,/,62*,-4,-17,/,/,-6,
Cc1cc(OC(C)C(=O)NCC(O)c2ccccc2)c2c(C)c(C)c(=O)oc2c1 (stereo not given),i,-3,-33,-1,0,5,10,-10,
COC(=O)c1ccc(NC(=O)C2CCN(S(C)(=O)=O)CC2)cc1,i,10,-85,-3,6,-4,-2,-10,
CN1CCc2c(sc(NC(=O)c3ccc([N+](=O)[O-])o3)c2C(N)=O)C1,i,12,72*,-53,-43,1,44,11,
Cc1ccccc1Nc1nc(N)nc(COC(=O)c2cccc(S(=O)(=O)NCc3ccccc3)c2)n1,i,3,-67,5,-6,-2,-1,/,
N#Cc1ccccc1NC(=O)CC1CCCCC1,i,4,/,0,-4,-12,4,-18,
Cc1cc(=O)nc2c3ccccc3n(CC(=O)NCCCN3CCOCC3)n12,i,4,/,-4,-4,-3,-5,-5,
CCOc1ccccc1NC(=O)Cn1nnc(C(=O)NCc2cccs2)c1N,i,-2,-30,11,-5,-10,-12,-16,
COc1ccc(NC(=O)c2cc(-c3ccc(C)o3)nc3ccccc23)cc1,i,/,6,-4,0,/,/,/,
Cn1cccc1CNC(=S)Nc1cc(F)cc(F)c1,i,2,7,1,3,0,-16,/,
Cc1ccc(C(=O)c2ccccc2C(=O)OCC(=O)NC(C)(C)C)cc1,i,12,4,-2,0,-6,-7,-14,
CC1(C)Cc2noc(N)c2C(C)(C)N1OC(=O)c1ccco1,/,6,/,4,4,6,7,43,
CCOC(=O)c1nn(-c2ccccc2C)c2nc(-c3ccc(C)cc3)c(C#N)c(=O)n12,i,5,/,-5,-2,4,-4,-14,
CCCc1nc2c(o1)CC(CC(C)SCC)CC2=O (stereo not given),i,3,/,5,4,3,15,1,
COc1ccc(-n2nc(C(=O)NCC(=O)N(C)Cc3ccccc3)c3ccccc3c2=O)cc1OC,i,2,5,0,-3,-17,-17,-7,
O=C(c1ccc([N+](=O)[O-])s1)N1CCN(c2ccccn2)CC1,i,-1,-14,-1,-5,-2,-2,-18,
CCN(CC)S(=O)(=O)c1ccc(C(=O)NCCOC(=O)c2ccc(F)cc2F)cc1,i,-9,7,1,-1,17,-15,/,
COc1ccc(-n2nnnc2CNC(=O)c2ccc3ccccc3c2)cc1,i,/,-12,-1,-4,/,-8,-20,
COc1ccc(/C=N/n2c(-c3ccco3)nc3ccccc3c2=O)cc1,i,-9,/,2,-5,80,-15,-4,eIF4H inh retest=33;PABP FP inh retest=37
Cc1ccc(NC(=O)CN(C)C(=O)CSc2nnc(C(F)(F)F)n2C)cc1,i,12,2,5,6,-6,-13,/,
SMILES,Rce1 inh,PABP FP inh,Env fusion inh,MT1-MMP act inh,MT1-MMP act inh RFP,eIF4H inh,CSC inhib,Yeast UUG start,others
CCC(C)/C(C)=N/NC(=O)c1cn(-c2ccccc2)nc1-c1ccccc1 (stereo not given),i,36,-18,3,7,-10,-23,/,
CC(C)CC(=O)NC(=S)N1CCN(c2ccc([N+](=O)[O-])cc2Cl)CC1,/,-6,0,5,-8,3,-3,/,
NCCCC[C@@H]1NC(=O)c2cc([N+](=O)[O-])cc(I)c2SC[C@@H](C(N)=O)NC(=O)[C@H](Cc2ccc(O)cc2)NC1=O,i,-2,/,10,4,-4,-5,9,
CCOc1c(C#N)c(C#N)c2nc(C)cc(C)n12,i,17,/,-15,5,3,-6,-19,
CC(C)NC(=O)C1CCN(C(=O)N(C)C)CC1,i,-8,/,1,1,-2,12,-11,
O=C1c2ccccc2C(c2nc3ccccc3[nH]2)N1c1ccccn1 (stereo not given),/,/,-2,2,8,/,/,-27,
Cc1ccc(-c2csc(NC(=O)/C=C/c3cccs3)n2)cc1C,i,0,13,-22,-22,-4,-6,/,
O=C(C1COc2ccccc2O1)N1CCCC1 (stereo not given),i,-8,-55,-1,10,-5,-6,-11,
Cc1ccc(C(=O)NCCC(=O)NCc2ccco2)cc1,i,-6,0,0,7,-8,-3,-1,
CCOc1cc(C)c(-c2onc(C(F)(F)F)c2-c2csc(C)n2)c(O)c1,i,-15,/,-9,-11,0,50,-12,
O=C1c2nc3cc(-c4ccccc4)[nH]n3c(=O)c2CN1Cc1ccccc1,i,13,/,/,/,-4,-10,/,
Cc1cccc2cc3c(NC(=O)CC(C)C)nn(C)c3nc12,i,9,/,0,-4,-5,-1,-14,

# Screens (PubChem BioAssay)
